Screening data deposited in PubChem by several laboratories.
HNF4A DNA FP: change in binding of human HNF4 alpha to DNA; HNF4a-FITC DNA binding, fluorescence polarization, 1 h; actives 0.3% (n = 360,000); P41235; activity change, % at 10 µM; AID 1224865; in the data active means activity change above about 30%, passing the limit was not always enough;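 further: controls were the assay level and a saturating level of protein; the project sought stronger binding though the title names inhibitors; some compounds called inactive have numbers as strong as hits; positive values seem to mean higher polarization but the record does not say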
ALR inh: human ALR oxidase inhibition via reduced H2O2; P55789; purified ALR, DTT oxidation, H2O2 HRP-luminol luminescence; inhibition, % (test concentration not listed); actives 3.8% (n = 290,000);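 active means mean and each replicate at 75% or more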;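 further: stock transfer was 7.5 nL into about 7.5 µL; 0% = neutral wells and 100% = wells with inactivated enzyme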
Target sequence (P55789 whole entry, looked up): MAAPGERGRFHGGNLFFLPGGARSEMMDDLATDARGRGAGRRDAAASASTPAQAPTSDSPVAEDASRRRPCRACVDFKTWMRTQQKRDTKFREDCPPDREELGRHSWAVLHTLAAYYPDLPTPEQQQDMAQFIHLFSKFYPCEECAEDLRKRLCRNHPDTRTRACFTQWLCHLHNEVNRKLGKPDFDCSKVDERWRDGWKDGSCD
UCH37 inh: blocks the human deubiquitinase UCH37 | Q9Y5K5 | purified proteasome/UCH37, Ub-AMC cleavage fluorescence | inhibition, % (concentration not given with the values) | actives 0.33% (n = 330,000);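 active means mean of two replicates above 20%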;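 further: 0% = compound-free wells with enzyme and 100% = wells lacking proteasome; stock transfer was 100 nL into about 20 µL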
Target sequence (Q9Y5K5 whole entry, looked up): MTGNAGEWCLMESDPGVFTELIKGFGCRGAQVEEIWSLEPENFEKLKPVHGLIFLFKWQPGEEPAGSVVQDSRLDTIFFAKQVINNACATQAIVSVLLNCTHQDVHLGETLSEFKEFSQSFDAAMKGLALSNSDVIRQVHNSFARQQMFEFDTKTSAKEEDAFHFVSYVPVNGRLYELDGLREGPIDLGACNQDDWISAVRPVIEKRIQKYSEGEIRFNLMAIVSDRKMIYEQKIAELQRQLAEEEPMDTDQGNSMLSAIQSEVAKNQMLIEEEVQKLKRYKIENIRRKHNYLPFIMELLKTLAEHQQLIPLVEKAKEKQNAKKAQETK
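Material: Human UCH37 enzyme supplied as purified proteasome complex | Schedule: 30 min compound-proteasome preincubation then 25 min substrate reaction, room temperature | Detection: AMC fluorescence from Ub-AMC cleavage, excitation 355 nm, emission 460 nm | Benchmarks: Wells without proteasome as full block, compound-free enzyme plus substrate as uninhibited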
Beta2AR agonist: human beta-2 adrenergic receptor agonism by FAP. actives 0.43% (n = 340,000). response, % (concentration not given with the values). Am2.2-beta2AR cells, FAP receptor internalization, flow cytometry; reference of the scale not given here;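 active means response above a set limit, near 3 SD of response in nonfluorescent compounds, cut at about 42% in these data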;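 further: stock transfer was 100 nL into about 11 µL; a reference agonist was the positive control; negative values mostly stem from fluorescent compounds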
Target sequence (P07550 whole entry, looked up): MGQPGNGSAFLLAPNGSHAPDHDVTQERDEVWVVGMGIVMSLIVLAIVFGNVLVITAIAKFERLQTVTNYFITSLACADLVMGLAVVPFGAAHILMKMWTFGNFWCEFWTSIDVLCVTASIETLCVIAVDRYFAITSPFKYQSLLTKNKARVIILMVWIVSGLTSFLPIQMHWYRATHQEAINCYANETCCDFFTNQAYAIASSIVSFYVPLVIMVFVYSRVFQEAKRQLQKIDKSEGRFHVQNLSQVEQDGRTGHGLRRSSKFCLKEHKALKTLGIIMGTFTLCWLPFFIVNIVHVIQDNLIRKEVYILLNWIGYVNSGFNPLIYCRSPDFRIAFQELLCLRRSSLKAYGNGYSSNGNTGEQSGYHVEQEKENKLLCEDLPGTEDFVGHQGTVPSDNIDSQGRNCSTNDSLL
Ecoli rRNA inh: inhibits bacterial ribosomal RNA function over humanized ribosomes; E. coli WT GFP vs humanized-ribosome RFP mutants, fluorescence, 24 h; hits give low values; DMSO median 0, no signal -100; GFP signal change (wild-type ribosome), % (test concentration not listed); actives 1.6% (n = 350,000); AID 720706;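 active means significant combined selectivity score with lowered wild-type GFP, culture density cut under 30%, mutant RFP and density less affected; inactive means any of these conditions unmet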; further: one replicate is shown; some compounds called inactive have numbers as strong as hits
E coli growth: blocks Escherichia coli growth; OD600, 23 h; hits give low values; OD600 absorbance (concentration not given with the values); actives 0.21% (n = 330,000); AID 1053175;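 active means OD600 absorbance below the run mean of sample wells minus 3.6 SD, in any replicate, cut at about 0.56 in these data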;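 further: stock transfer was 300 nL into about 60 µL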
FGF22 binding: FGF22 (human) thermal shift binding; Q9HCT0; recombinant FGF22 thermal shift, SYPRO orange fluorescence; percent of sucrose octasulfate shift, DMSO zero; calls only at 9.99 µM; actives 1.5% (n = 340,000);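 active means melting point raised past a set limit in the mean and every replicate; three in four hits are not shown here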
Ecoli rRNA inh OD600: further read-out of Ecoli rRNA inh, marked with its call; OD600 change, %; measured here: OD600 growth;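 optical density of the mix in the first replicate; 0 = DMSO median and -100 = no signal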
Ecoli rRNA inh RFP: further read-out of Ecoli rRNA inh, marked with its call; RFP signal change, %; measured here: RFP humanized mutant strains;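 first replicate; 0 = DMSO median and -100 = no signal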
Numbers without * were called inactive; i = inactive; x = not tested or not shown; + = active, no number; & = joins results of further samples. An excerpt; rates above refer to the full screens.

SMILES | HNF4A DNA FP | ALR inh | UCH37 inh | Beta2AR agonist | Ecoli rRNA inh | Ecoli rRNA inh OD600 | Ecoli rRNA inh RFP | E coli growth | FGF22 binding
CCn1c(-c2nn(C)c(C)c2Cl)n[nH]c1=S | 1.2 | x | -0.9 | 2.3 | x | x | x | 0.688 | x
Cc1nnc(SCC(=O)c2cc(C)n(C3CC3)c2C)s1 | 1.6 | 55.1 | -0.3 | 21.0 | x | x | x | 0.682 | x
CC(=O)C1=NN(c2ccccc2)C(c2ccc3c(c2)OCO3)N1c1ccccc1 (stereo not drawn) | 10.8 | -8.0 | -49.5 | 3.2 | -6.0 | -6.0 | 3.3 | 0.684 | i
COc1ccc(C(=O)Nc2ccc(NS(=O)(=O)c3ccccc3)cc2)cc1OC | 0.7 | -4.3 | 5.5 | 8.6 | -24.6 | -9.6 | 20.6 | 0.694 | i
CC(C)C(C)NC(=O)CSc1ccc(S(=O)(=O)N2CCOCC2)cn1 (stereo not drawn) | -3.1 | x | 2.4 | 1.3 | 9.7 | 1.5 | -3.2 | 0.654 | i
CCOC(=O)c1cnc2c(CC)cccc2c1NCCN1CCOCC1 | 2.9 | -19.9 | 0.0 | 0.1 | -2.6 | 3.3 | -3.2 | 0.685 | i
Cc1nc(CC(=O)Nc2nc(C(C)(C)C)cs2)cs1 | 4.8 | 4.0 | 0.3 | 2.5 | x | x | x | 0.675 | x
O=C(CCOc1ccccc1)Nc1ccnn1C1CCN(Cc2ccc(CO)o2)CC1 | 0.7 | 8.4 | 0.3 | -0.1 | 18.7 | 16.6 | 1.8 | 0.721 | +
N#Cc1c(N2CCCCC2)nc(N2CCCCC2)c2c1CCN(Cc1ccccc1)C2 | 6.7 | 1.7 | -57.2 | 2.6 | x | x | x | 0.692 | x
Cc1onc(-c2c(Cl)cccc2Cl)c1C(=O)Nc1nc(C(C)(C)C)cs1 | -3.6 | 0.3 | x | -2.3 | -15.7 | -6.7 | -4.8 | x | i
COc1ccc(S(=O)(=O)Nc2ccc(N(C)C(C)=O)cc2)cc1 | 1.4 | -2.2 | 1.1 | 0.7 | x | x | x | 0.644 | x
O=C(CSc1nc2ccccc2c(=O)n1-c1ccc(Cl)c(Cl)c1)Nc1ccc2c(c1)CCC2 | 1.0 | x | x | x | 5.1 | 5.0 | 0.9 | x | i
Cc1nc(=O)c(-c2ccccc2)c(C)n1CC1CCCO1 (stereo not drawn) | -2.1 | -39.2 | -3.2 | 0.7 | x | x | x | 0.767 | x
O=C(CN1CCC(c2nc3ccccc3s2)CC1)NCc1ccccc1 | 1.4 | 0.0 | 0.4 | -20.6 | x | x | x | 0.702 | x
Cc1ccc(CNC(=O)COc2ccccc2-c2ccccc2)cc1 | -2.6 | -0.2 | 1.1 | -11.2 | x | x | x | 0.665 | x
CSc1ccc(CCNC(=O)C2CCCN(c3ncnc4c3nc3n4CCCCC3)C2)cc1 (stereo not drawn) | -0.1 | 3.4 | 1.4 | -1.9 | -5.5 | 1.9 | -1.5 | 0.667 | i
NS(=O)(=O)c1ccc(-c2ccc(/C=N/NC(=O)c3ccc([N+](=O)[O-])cc3)o2)cc1 | -3.2 | -10.2 | x | -0.1 | 10.9 | 7.1 | -1.6 | x | i
COCCN(C(=O)CCC(=O)Nc1cc(C)on1)C(C(=O)NC1CCCC1)c1ccccc1F (stereo not drawn) | -1.9 | x | 1.9 | -1.5 | -0.2 | 5.0 | 0.3 | 0.63 | i
CCCCn1c(N)c(N(CC(C)C)C(=O)c2cc(=O)[nH]c3ccccc23)c(=O)[nH]c1=O | 2.5 | -5.6 | 2.3 | -5.8 | 8.7 | 12.1 | 1.6 | 0.651 | i
COc1ccccc1Oc1ccc(NC(=O)c2ccccc2)cc1 | 1.2 | -0.9 | 1.8 | 12.3 | 13.4 | 5.7 | 5.4 | 0.734 | i
COc1ccc(C(=O)NC2(C(F)(F)F)C(=O)Nc3c2c(=O)[nH]c(=O)n3CCc2ccc(OC)c(OC)c2)cc1 (stereo not drawn) | 2.4 | -25.9 | -0.5 | -5.4 | x | x | x | 0.713 | x
CCOc1ccc(-c2ccc(/C=C3/C(=N)N4C(C)=CSC4=NC3=O)o2)c([N+](=O)[O-])c1 | -0.2 | -12.0 | 10.2 | 12.8 | -6.1 | 8.8 | 32.7 | 0.586 | i
CC(C)(C)c1ccccc1NC(=O)Nc1nc(C(N)c2ccccc2)cs1 (stereo not drawn) | -0.2 | x | x | x | -35.5 | -63.2 | 14.6 | x | i
O=C(NCCC1CCCCN1S(=O)(=O)c1ccc(F)cc1)C(=O)NC1CC1 (stereo not drawn) | -0.3 | -2.2 | 2.3 | 2.5 | 6.4 | 12.7 | 0.0 | 0.662 | i
CCOc1ccc2c(c1)nc(SCC(=O)c1cccs1)n2C | 2.0 | 97.0* | 4.2 | -3.8 | 3.0 | 0.5 | 8.5 | 0.667 | x
O=C(CSc1nc2c(c(=O)[nH]1)CCC2)Nc1cccc(Cl)c1 | 4.5 | 68.2 | 4.5 | 4.1 | x | x | x | 0.673 | x
Cc1ccnc(NS(=O)(=O)c2ccc(NC(=O)Cc3cccs3)cc2)n1 | -15.8 | -4.0 | 4.0 | -2.6 | x | x | x | 0.705 | x
O=C(O)c1cc(NCc2c(F)cccc2Cl)ccc1N1CCOCC1 | -3.1 | x | -7.3 | 3.6 | x | x | x | 0.61 | x
O=C(CNC(=O)C12CC3CC(CC(C3)C1)C2)OCc1cc(=O)n2cc(Br)ccc2n1 | 1.3 | -3.1 | -4.7 | -5.2 | 10.5 | 7.0 | -2.7 | 0.663 | i
CCOC(=O)c1cc(NC(=O)N(CC)C2CCCCC2)c(C)nc1C | 3.8 | -6.6 | -0.8 | 0.8 | 3.0 | -0.2 | -1.0 | 0.711 | i
COc1ccc(S(=O)(=O)N(C)C[C@H]2Oc3ccc(NC(=O)C4CC4)cc3C(=O)N([C@H](C)CO)C[C@@H]2C)cc1 | -0.3 | -3.0 | 1.8 | -0.9 | -1.9&-4.6 | 2.6&7.2 | -0.5&0.9 | x | i
O=C(Nc1cccc(C(F)(F)F)c1)c1cccc(NS(=O)(=O)c2ccc(Br)c(C(=O)O)c2)c1 | 0.4 | 4.0 | 0.1 | -2.5 | 0.0 | 0.6 | 0.2 | 0.678 | i
COCCn1c(SCc2csc(-c3ccccc3)n2)nc2ccccc21 | 5.1 | 74.2 | 4.0 | -8.5 | x | x | x | 0.698 | x
Cc1cccc(N(Cc2cc3ccc(C)cc3[nH]c2=O)C(=O)c2ccco2)c1 | 1.8 | -7.0 | -22.1 | -6.1 | -13.9 | -12.2 | 10.5 | 0.684 | i
COc1cccc(NC(=O)CNCc2ccccc2)c1 | -4.9 | 3.6 | 4.0 | 2.3 | 9.6 | 7.0 | -0.3 | 0.662 | i
CCN(CC)C(=O)COc1ccc(-c2ccccc2)cc1 | -2.4 | -2.1 | 0.4 | -1.1 | x | x | x | 0.723 | x
CCOc1ccc(CNC(=O)CCc2cn(C)c3ccccc23)cc1OC | 0.9 | -3.7 | 0.7 | 2.6 | 8.2 | 9.3 | 0.7 | 0.704 | x
CSc1cc(-c2ccccc2)n(C)c(=O)c1C#N | 0.6 | x | 3.1 | -4.0 | 18.4 | 8.1 | 2.2 | 0.677 | i
O=C(N/N=C\C=C\c1ccco1)c1cc(-c2ccc3ccccc3c2)n[nH]1 | -7.8 | -3.8 | x | 17.3 | -1.0 | 2.6 | -1.5 | x | i
CC(C)(C)C(=O)Nc1ccc(-c2cn3ccsc3n2)cc1 | 2.3 | 11.2 | 3.8 | -4.4 | x | x | x | 0.67 | x
Nc1cc(C(=O)OCC(=O)NC(c2ccccc2)c2ccccc2)ccc1Cl | -2.5 | 9.8 | 0.3 | -1.3 | x | x | x | 0.689 | x
CCN(CC)S(=O)(=O)c1ccc(N2CCN(CCO)CC2)nc1 | 7.8 | 2.1 | -0.6 | 4.2 | x | x | x | 0.707 | x
COc1cc2cc(CN(CCO)S(=O)(=O)c3ccccc3)c(=O)[nH]c2cc1OC | 6.2 | -2.8 | -144.4 | 0.5 | x | x | x | 0.714 | x
Cc1ccc(NC(=O)c2ccco2)cc1 | -1.5 | x | x | x | 10.0 | 13.7 | -0.8 | x | x
CN(C)S(=O)(=O)c1ccc(N2CCCC2)c(C(=O)Nc2ccc(Br)cc2F)c1 | -1.2 | x | -3.8 | -0.2 | 3.4 | 9.4 | -1.4 | 0.717 | i
CCOc1ccc2nc(N=NC3=C(O)CC(C)(C)CC3=O)sc2c1 | 1.4 | -15.8 | 9.6 | 5.5 | 13.2 | 16.6 | 1.0 | 0.695 | i
COCCCn1c(SCC(=O)N2CCCC(C)C2)nnc1-c1ccco1 (stereo not drawn) | 1.7 | 0.0 | 5.1 | -9.2 | -0.9 | 0.2 | 5.1 | 0.709 | i
Cc1cccc2c1cnn2C(=O)CCC(=O)N1CC(C)CC(C)C1 (stereo not drawn) | -0.6 | -1.6 | 1.5 | -6.3 | -13.7 | -34.2 | -2.4 | 0.784 | i
FC(F)(F)c1ccccc1NC(=S)N1CCCC1 | -1.8 | 3.2 | 0.7 | 6.0 | 8.6 | 7.4 | -0.6 | 0.653 | i
CCC(=O)NC(Nc1nc2ccc(C)cc2s1)(C(=O)OC)C(F)(F)F (stereo not drawn) | -1.2 | 6.2 | 1.9 | 2.1 | x | x | x | 0.706 | x
O=C(COC(=O)c1ccc(Cl)nc1)Nc1cc(S(=O)(=O)N2CCOCC2)ccc1Cl | 6.3 | 3.3 | -0.6 | 11.8 | x | x | x | 0.664 | i
CCOC(=O)CNC(=O)CCc1nnc2ccc(N3CCC(C)CC3)nn12 | -0.6 | -2.0 | 4.8 | -0.3 | 0.3 | 11.4 | -1.1 | 0.664 | i
CCC(C)(C(=O)NC1CCCCC1)N(Cc1cccs1)C(=O)Cc1cccs1 (stereo not drawn) | -8.0 | -20.1 | 0.9 | -5.6 | x | x | x | 0.699 | x
Cc1ccnc(NC(=O)C2CCCN(S(=O)(=O)c3ccc4[nH]c(=O)ccc4c3)C2)c1 (stereo not drawn) | -3.2 | -1.9 | 2.4 | -1.2 | 7.2 | 11.4 | -0.1 | 0.687 | i
CCCCNC(=O)c1nn2c(C(F)(F)F)cc(-c3ccc(OC)cc3)nc2c1Br | -0.5 | 0.9 | x | 0.7 | 13.1 | 8.5 | 3.1 | x | i
C=C(C)C1CC=C(C)/C(=N/NC(=O)COc2cccc(C)c2)C1 (stereo not drawn) | -0.8 | 1.5 | x | -32.3 | x | x | x | x | x
COc1ccc(-n2nc3c(c2NC(=O)C(C)Oc2ccccc2)CS(=O)C3)cc1 (stereo not drawn) | 3.1 | -0.7 | 3.7 | 1.6 | 1.7 | -3.3 | -1.5 | 0.708 | i
CNc1ccc(SC#N)cc1 | 4.3 | x | 18.8 | 3.5 | -3.0 | 2.1 | -2.7 | 0.703 | i
N#Cc1c(N)sc(=S)c2c1CCCC2 | -13.0 | 13.0 | 7.6 | 35.5 | x | x | x | 0.651 | x
CCOc1ccccc1NC(=O)Cn1cnc2c(nnn2-c2cccc(OC)c2)c1=O | 3.0 | -43.8 | 3.5 | 3.1 | 0.5 | 14.2 | 0.3 | 0.729 | i

3 compounds from above, sorted by molecular weight, ascending.
SMILES | HNF4A DNA FP | ALR inh | UCH37 inh | Beta2AR agonist | Ecoli rRNA inh | Ecoli rRNA inh OD600 | Ecoli rRNA inh RFP | E coli growth | FGF22 binding
CCN(CC)S(=O)(=O)c1ccc(N2CCN(CCO)CC2)nc1 | 7.8 | 2.1 | -0.6 | 4.2 | x | x | x | 0.707 | x
CCC(C)(C(=O)NC1CCCCC1)N(Cc1cccs1)C(=O)Cc1cccs1 (stereo not drawn) | -8.0 | -20.1 | 0.9 | -5.6 | x | x | x | 0.699 | x
Cc1ccnc(NC(=O)C2CCCN(S(=O)(=O)c3ccc4[nH]c(=O)ccc4c3)C2)c1 (stereo not drawn) | -3.2 | -1.9 | 2.4 | -1.2 | 7.2 | 11.4 | -0.1 | 0.687 | i
